NPYLR7 ag: agonists of mosquito NPYLR7 receptor, primary screen, cell-based, Aedes aegypti, calcium fluorescence, mosquito biting behavior | Aedes aegypti neuropeptide Y-like receptor 7 (NPYLR7) | HEK293T NPYLR7/Galpha15, GCaMP6s calcium fluorescence | activation, % at 10 µM | 0.15% of 270,000 active | AID 1259423, 2018; in the data active = activation above about 40%;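 note: 0% = vehicle and 100% = reference agonist at the receptor; some compounds past the cut are filed as inactive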
NPYLR7 ag max-min: second read-out of NPYLR7 ag, no call of its own (marks repeat the call); activation, %; measured here: Max-Min RFU normalised activation; some inactives read as strong as hits;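 span of the calcium signal over five minutes; 0% = vehicle and 100% = native peptide agonist; compound fluorescence can raise it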
An asterisk follows results filed as active.

SMILES	NPYLR7 ag	NPYLR7 ag max-min
Cc1ccc(C2CC(c3ccccc3F)=NN2C(=O)CN2CCN(c3ccccc3F)CC2)c(C)c1 (stereo not drawn)	21	24
C=CCN=c1scc(-c2ccc(OC(F)F)cc2)n1N=Cc1ccc[nH]1	1	36
O=C(NNC(=O)c1ccc(=O)n(Cc2ccc(Cl)cc2)c1)c1cccc(C(F)(F)F)c1	-7	-13
CCc1cc(=O)n(CC(=O)Nc2ccc3c(c2)OCCO3)c(-n2nc(C)cc2C)n1	-1	-3
CCOC(=O)c1cc(-c2cccc(NC(=O)c3ccco3)c2)n(-c2ccccc2OC)n1	23	11
O=C(OCC(=O)N1CCNC1=O)c1cccc(Oc2ccccc2)c1	2	-3
CC(c1ccc(Cl)cc1Cl)N(C)C(=O)c1ccc(CCNS(C)(=O)=O)s1 (stereo not drawn)	3	5
Cc1ccc(NC(=O)CC2Oc3ccccc3NC2=O)cc1 (stereo not drawn)	2	1
CCOc1ccccc1C=NNC(=O)c1n[nH]c2c1CCC2	4	6
Cc1nc(-c2cccc(F)c2)nc(N2CCN(C(=O)NC34CC5CC(CC(C5)C3)C4)CC2)c1Cc1ccccc1	6	15
CCOC(=O)c1c(NC(=O)c2cnn3c(C(F)(F)F)cc(-c4ccccc4)nc23)sc2c1CCC(C)C2 (stereo not drawn)	-3	-8
CC(C)CC(=O)N1CCC(C)(N(C)C(=O)OC(C)(C)C)CC1	8	6
COC(=O)c1ccc(C=CC(=O)c2ccc(O)c(OC)c2)cc1	0	3
COc1ccc(-n2nc(-c3ccccc3Cl)cc2C(=O)N2CC3(C)CC2CC(C)(C)C3)cc1 (stereo not drawn)	1	1
Cn1c(O)c(N=Nc2ccccc2C(=O)O)c2ccccc21	2	-4
COc1ccc(-c2ncc(CN3CCCC(C(=O)c4cccc(OC(C)C)c4)C3)cn2)cc1 (stereo not drawn)	10	-1
CCCCCCn1c(SCCCCC)nc2c1c(=O)[nH]c(=O)n2C	4	0
CCOc1ccccc1C=C1N=C(c2cc(OC)c(OC)c(OC)c2)OC1=O	2	8
Cc1ccc(NC2CCCN(C(=O)CCc3scnc3C)C2)cc1C (stereo not drawn)	2	0
CCC(=O)NCCSc1ncc(-c2ccccc2)[nH]1	2	-1
O=C(c1ccccc1C(F)(F)F)N1CCN(Cc2cc(=O)n3ccsc3n2)CC1	-4	-5
Cc1ccc(OCCC(=O)OC(C)C(=O)Nc2cccc(C#N)c2)cc1 (stereo not drawn)	4	0
CCOC(=O)c1nc2ccccc2nc1N1CCCN(C(=O)c2ccc(C(F)(F)F)nc2C)CC1	-15	-3
CS(=O)(=O)NCc1ccc(NC(=O)c2cc3ccccn3c2)cc1	-1	-1
O=C(O)c1coc(CN(Cc2cccc(C(F)(F)F)c2)Cc2ccc3c(c2)OCO3)n1	9	13
O=C1CSC(=S)N1c1cccnc1	0	35
COCC1CCN(C(=O)c2cn(CCCc3ccccc3)nn2)C1 (stereo not drawn)	-1	-6
O=C(NC1CC1)c1cc(NCCOc2cccc3cccnc23)ccn1	5	1
COc1ccc(Nc2nn3c(=O)c4cc5c(cc4nc3s2)OCO5)c(OC)c1	2	-1
COCCn1c(=NC(=O)CS(=O)(=O)c2ccc(OC)cc2)sc2c(OC)ccc(OC)c21	6	3
Cc1ccc(-c2nc(C=Nc3nncs3)c(O)o2)cc1	-7	-7
CC(C)CCn1c(=O)c2ccccc2n2c(SC(C)C(=O)NC(N)=O)nnc12 (stereo not drawn)	4	7
COc1ccc(N2CCN(Cc3cc(=O)c(OC)cn3CC(N)=O)CC2)cc1	0	-1
O=C(c1cccc(Cl)n1)N1CCC(n2c(C(F)(F)F)nc3ccccc32)CC1	6	4
Cc1ccc(C(=O)Nc2cnn(-c3ccc(C(=O)N4CCC(c5ccc(F)cc5)C4)cc3)c2)c(C)c1 (stereo not drawn)	14	5
CC(C)(C)c1cc2nc(-c3ccc(F)cc3)cc(C(=O)N3CCC(C(N)=O)CC3)n2n1	17	14
Cc1ccc(C(O)CNC(=O)C2CCC2)cc1 (stereo not drawn)	8	6
CCOC(=O)c1sc(=NC(=O)c2ccc(C)c(C)c2)n(C)c1C	1	3
CCCCn1c(N2CCN(Cc3cccc4ccccc34)CC2)nc2c1c(=O)[nH]c(=O)n2C	2	39
COc1ccccc1OCC1c2ccsc2CCN1C(=O)CN(C(=O)c1ccccc1F)C1CC1 (stereo not drawn)	-4	-1
O=C(c1coc(CN(Cc2ccc3c(c2)OCO3)Cc2ccc(F)cc2F)n1)N1CCCCC1	3	11
CSc1ncccc1C(=O)N1CC(=O)N(C2CCCCC2)CC(OCc2ccncc2)C1 (stereo not drawn)	14	4
CCOCCSc1nc2c(c(=O)[nH]c(=O)n2C)n1CCCc1ccccc1	15	5
Cc1nc(-c2ccccc2)sc1C(=O)Nc1cccc(-c2ccc(N3CCN(C)CC3)nn2)c1	-1	-1
Cc1cc(C)c(S(=O)(=O)N2CCN(C(C)C(=O)Nc3ccccc3)CC2)c(C)c1 (stereo not drawn)	1	2
COc1ccc(-n2ccnc2-c2ccc(O)c(Cl)c2)cc1OC	6	5
O=C(CN1CN(c2ccccc2)C2(CCN(C(=O)c3ccccc3Cl)CC2)C1=O)NCc1ccco1	20	21
CC(NC(=O)c1ccc(C(F)(F)F)cc1)c1ccco1 (stereo not drawn)	-1	-1
Cc1cccc(-c2nnc(SCC(=O)NC(C)(C)C)o2)c1	-9	-9
Cc1ccc(-c2csc(/C=C3\SCC(=O)N3CC(=O)N3C(C)CCCC3C)n2)cc1 (stereo not drawn)	1	-2
Carrying on.
SMILES	NPYLR7 ag	NPYLR7 ag max-min
Cc1cc(NC(=O)Cn2cnc3c(C)cccc3c2=O)n(CCC#N)n1	-7	-8
COc1ccc(C=C2C(=O)c3ccccc3C2=O)cc1C	7	11
O=C(c1nn(-c2ccccc2F)c(=O)n(Cc2cccc(Cl)c2)c1=O)N1CCOCC1	13	17
Oc1ccc(N=Nc2ncn[nH]2)cc1	-2	-1
CCOC(=O)C1=C(O)/C(=C\c2cccn2C)SC1=Nc1ccc(OC)c(OC)c1	-3	-1
CCOC(=O)c1c(C)oc2nc(CN3CCc4ccccc43)nc(N)c12	-8	-5
Cc1cc(F)ccc1S(=O)(=O)NCc1[nH]ncc1Br	-3	14
COCCN1CC(C(=O)NCCc2ccc3ccccc3c2)CCC1=O (stereo not drawn)	5	2
CCCCCCCCCC(=O)N(CCCOC)CC(=O)N(CCc1c[nH]c2ccccc12)Cc1ccc(N(C)C)cc1	14	22
O=C1CCNc2ccccc2CCN1	-6	3
NC(=O)c1cnn(Cc2nnnn2-c2ccccc2)c1	-2	55
O=C(NCc1ccccc1-n1cccn1)C1CC(=O)N(Cc2ccccn2)C1 (stereo not drawn)	9	4
COCCCN(Cc1csc(COc2ccccc2C(C)C)n1)C(=O)c1ccco1	-2	4
CNc1cccc(/C=C\CCCO)n1	1	-1
CCOc1ccc(-c2nccn2Cc2ccc3c(c2)OCO3)cn1	14	5
O=[N+]([O-])c1ccccc1NN=C1CCc2ccccc21	1	2
COc1cccc2ccc(N3CCC4(CC3)CN(C)CCN4C)nc12	9	6
CCOC(=O)c1cc(CC)sc1NC(=O)CSc1ccc(S(=O)(=O)N2CCCC2)cn1	-3	-7
O=C(Nc1ccc(-c2nc3cc(Cl)ccc3o2)cc1)c1ccc2ccccc2c1	-3	-6
CCOC(=O)c1cc2c(Cl)c(N3CCC(N(c4ccccc4)c4ccccc4)CC3)ccc2o1	3	8
CCCn1ncc(C(=O)N2CCC3(CN(C)C(=O)O3)C2)c1C (stereo not drawn)	12	13
COc1ccc(C(=O)Nc2c(Cl)cncc2Cl)cc1OC1CCCC1	-17	-22
CCCCn1c(=O)[nH]c(=O)c2c1ncn2C1CCCC1	4	3
CCc1cc2c(N3CC(C)(C)C3(C)C)ncnc2s1	0	-5
Brc1ccc2nc(-c3ccccn3)c(Nc3ccccc3)n2c1	-3	-3
CCC(=O)Nc1ccc(OCC(=O)N2CCCC2c2ccccc2C)cc1 (stereo not drawn)	-1	-1
Cc1nc(-n2nc(-c3cccs3)cc2NC(=O)C2CC(=O)N(c3ccc(F)cc3)C2)[nH]c(=O)c1C (stereo not drawn)	7	5
N#Cc1cccc(COC(=O)c2cc(Cl)c3c(c2)OCO3)c1	-2	-1
Cc1cccc(C(=O)N2N=C(c3ccccc3)CC2(O)C(F)(F)F)c1O (stereo not drawn)	2	2
COc1ccc(-c2nc(CN3CCCCC3c3nc4ccccc4[nH]3)c(C)o2)c(OC)c1C (stereo not drawn)	16	9
Cc1n[nH]c(C)c1S(=O)(=O)N1CCN(C)CC1	16	10
O=C(c1ccc(Cl)cc1)N1N=C(c2ccccc2)CC1c1ccccc1[N+](=O)[O-] (stereo not drawn)	8	13
CNC(=O)c1csc(-c2ccc(OC)c(OC)c2)n1	-6	-2
CNc1cc(C(=O)N(Cc2cccnc2)Cc2ccc3c(c2)OCO3)ccn1	-1	9
CCNc1ncc(C(=O)N2CCCC3(C=Cc4ccccc4O3)CC2)cn1 (stereo not drawn)	-5	8
CN1CCN(CCCN(C)C(=O)Nc2cccc3ccccc23)CC1	1	-1
O=C1/C(=C/c2ccc([N+](=O)[O-])cc2)C=C(c2ccccc2)N1c1ccccc1Cl	-1	6
Cc1nc(C)c(C(C)N(C)C(=O)CCn2c(C)csc2=O)s1 (stereo not drawn)	4	3
O=C1C(Sc2ccnc3ccccc23)CCN1C1CCOCC1 (stereo not drawn)	4	3
CC(C)N1CCNC(=O)C1CC(=O)NC1(CN2CCCC2)CCCCC1 (stereo not drawn)	30	8
CCN1C(=O)NC2NC(=O)NC21 (stereo not drawn)	2	6
Cc1c(Br)cc(Br)c(N)c1Br	-1	-4
CNC(=S)NN=Cc1ccc2c(c1)OCCO2	9	8
Cc1c(C(=O)N2c3ccccc3CC2C)sc2nc(-c3ccccc3)cn12 (stereo not drawn)	4	-1
COc1ccc(C(=O)C2CCCN(C(=O)CCc3nc4ccccc4s3)C2)c(C)c1 (stereo not drawn)	5	-2
CCN1CCN(c2c(CN(C(=O)COc3ccccc3)C3CC3)c(C)nn2-c2cccc(F)c2)CC1	1	-1
CC(C)C(CNC(=O)c1cnn2cccnc12)N1CCc2ccccc2C1 (stereo not drawn)	13	12
O=C1CCN(C[C@@H](O)COCc2ccccc2)c2cc3c(cc2CN1C1CC1)OCO3	0	-3
COc1ccccc1Oc1ncccc1CNC(=O)C1CCOC1 (stereo not drawn)	12	2
O=C(O)c1cc(N2CCNCC2)ccc1[N+](=O)[O-]	-3	5
New compounds follow
SMILES	NPYLR7 ag	NPYLR7 ag max-min
N#CC1COCCN1C(=O)C1CC1c1ccco1 (stereo not drawn)	0	-3
COc1cccc(-c2nc(C=Nc3ccc(F)c(Cl)c3)c(O)o2)c1	-4	-5
O=C(Nc1nc(-c2ccc(F)cc2)ns1)c1n[nH]c(=O)[nH]1	9	8
CCn1ccnc1CN1CCC(CNC(=O)NC2CCCC2)C1 (stereo not drawn)	0	0
COc1ccc(-c2nc3c(OCc4ccccc4)cccn3c2Nc2c(C)cccc2C)cc1	1	4
CC(C)Cc1nc(-c2ccc(C#CC(C)(C)O)o2)n(-c2ccccn2)n1	1	-10
Oc1c(C(c2ccc(Cl)cc2)N2CCCC2)ccc2cccnc12 (stereo not drawn)	-10	-10
CCCCCCSc1nnc2[nH]c(=O)cc(N)n12	5	4
CCOc1ccccc1CN1CCN(Cc2ccc3nsnc3c2)CC1CCO (stereo not drawn)	5	0
Cc1nnnn1CCCN1CCCC2(CC1)CN(C)C(=O)O2 (stereo not drawn)	10	4

Another view of four compounds above:
> COc1ccc(-c2nc3c(OCc4ccccc4)cccn3c2Nc2c(C)cccc2C)cc1
  NPYLR7 ag = 1 | NPYLR7 ag max-min = 4
> CC(C)Cc1nc(-c2ccc(C#CC(C)(C)O)o2)n(-c2ccccn2)n1
  NPYLR7 ag = 1 | NPYLR7 ag max-min = -10
> Oc1c(C(c2ccc(Cl)cc2)N2CCCC2)ccc2cccnc12 (stereo not drawn)
  NPYLR7 ag = -10 | NPYLR7 ag max-min = -10
> CCCCCCSc1nnc2[nH]c(=O)cc(N)n12
  NPYLR7 ag = 5 | NPYLR7 ag max-min = 4

Among those listed so far, 9 contain an aryl thioether with sulfur outside any ring.
SMILES	NPYLR7 ag	NPYLR7 ag max-min
CCCCCCn1c(SCCCCC)nc2c1c(=O)[nH]c(=O)n2C	4	0
CCC(=O)NCCSc1ncc(-c2ccccc2)[nH]1	2	-1
CC(C)CCn1c(=O)c2ccccc2n2c(SC(C)C(=O)NC(N)=O)nnc12 (stereo not drawn)	4	7
CSc1ncccc1C(=O)N1CC(=O)N(C2CCCCC2)CC(OCc2ccncc2)C1 (stereo not drawn)	14	4
CCOCCSc1nc2c(c(=O)[nH]c(=O)n2C)n1CCCc1ccccc1	15	5
Cc1cccc(-c2nnc(SCC(=O)NC(C)(C)C)o2)c1	-9	-9
CCOC(=O)c1cc(CC)sc1NC(=O)CSc1ccc(S(=O)(=O)N2CCCC2)cn1	-3	-7
O=C1C(Sc2ccnc3ccccc23)CCN1C1CCOCC1 (stereo not drawn)	4	3
CCCCCCSc1nnc2[nH]c(=O)cc(N)n12	5	4

Next part
SMILES	NPYLR7 ag	NPYLR7 ag max-min
COc1ccc(C2=NC(=Cc3ccc(F)c(F)c3)C(=O)O2)cc1OC	3	11
Cc1cccc(NC(=O)c2cc([N+](=O)[O-])ccc2Cl)n1	0	-4
CC1=C(C(=O)OCc2ccccc2)C(c2cccs2)n2c(sc(=Cc3ccco3)c2=O)=N1 (stereo not drawn)	-8	-9
Cc1cccc(N2CCN(c3ccc(S(=O)(=O)NC4CC4)cn3)CC2)c1	4	6
COc1ccc(CNC(=O)CC2C(=O)NCCN2CCC(C)C)cc1 (stereo not drawn)	8	3
CC(C)C(NCc1nnnn1-c1ccccc1)c1cccs1 (stereo not drawn)	1	1
Cc1nc(-c2ccc(-c3ccccc3)o2)n(CC(=O)N2CCN(C)CC2)c1C	13	4
Cc1ccc2nc(COC(=O)CCC(=O)c3cccs3)cc(=O)n2c1	0	40

Not all compounds are listed. The share of hits here may be higher or lower than overall.
